AmpC inh no det: inhibitors of E. coli AmpC beta-lactamase without detergent. 71,000 compounds, 1.8% hits. P00811. AmpC nitrocefin hydrolysis, absorbance 480 nm, no detergent; potencies from a single point are estimates. AID 585. Potency, µM (series often up to 28.7 µM), inactives show top-dose activity change, negative = inhibition; active = falling curve, for most hits resting on a single point; inconclusive = weak or doubtful change; inactive = flat or rising curve; note: % of control where 0% means no effect; about half of the hits show no inhibition at the top dose; a quarter of the inactives give rising signals
Target sequence (P00811 whole entry, looked up): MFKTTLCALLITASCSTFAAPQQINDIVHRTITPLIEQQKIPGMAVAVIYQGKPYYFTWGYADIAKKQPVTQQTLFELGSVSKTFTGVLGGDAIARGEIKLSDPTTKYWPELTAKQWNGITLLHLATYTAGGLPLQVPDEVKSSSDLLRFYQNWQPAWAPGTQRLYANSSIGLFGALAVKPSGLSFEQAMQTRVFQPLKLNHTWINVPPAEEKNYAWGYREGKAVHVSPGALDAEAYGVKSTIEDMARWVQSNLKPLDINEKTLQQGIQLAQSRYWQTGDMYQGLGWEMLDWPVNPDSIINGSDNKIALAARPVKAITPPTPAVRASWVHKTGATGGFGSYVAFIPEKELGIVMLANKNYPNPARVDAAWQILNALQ
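AmpC in 20 mM phosphate buffer pH 7.0 was preincubated 15 min at room temperature with compounds. Nitrocefin (800 uM stock) was then added and hydrolysis followed at 480 nm every 20 s for 4 min.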
* marks the source's active call; other numbers are inactive results; ? = inconclusive; & = joins results of further samples; [ ] = remark or other dose. Potency is the fitted concentration of half-maximal effect. This is a subset. The share of hits here may be higher or lower than overall.

SMILES	AmpC inh no det
COc1cc(OC)cc(-c2nc(-c3ccc(Br)cc3)no2)c1	-13%
CCn1nnc(NC(=O)COc2ccc(C3CCCCC3)cc2)n1	-4%
CC(NC(=O)Cc1cccs1)C(c1cccs1)N1CCOCC1 (centres undefined)	22%
Cc1cccc(-c2nc(CN3CCCC(C(=O)NC4CCCC4)C3)c(C)o2)c1 (centres undefined)	103%
CCN1CCN(Cc2nc3c(c(=O)n(C)c(=O)n3C)n2C(C)C(C)=O)CC1 (centres undefined)	-2%
COc1ccccc1OCCCc1c(C)n[nH]c1C	24%
COc1oc(-c2ccccc2)nc1C(F)(F)F	-3%
COc1ccc(C(=O)NCC(c2cccnc2)N2CCN(c3ccc(F)cc3)CC2)cc1OC (centres undefined)	117%
CC(C)(C)NC(=O)C(OC(=O)Cn1nnc(-c2ccc(F)cc2)n1)c1ccncc1 (centres undefined)	64%
O=c1sc2ccccc2n1CCOc1ccccc1	-5%
CCOC(=O)Cc1cc(=O)n2[nH]c(C)c(-c3ccccc3)c2n1	-2%
CC(=O)Nc1ccc(S(=O)(=O)N2CCCC2C(=O)O)cc1 (centres undefined)	-5%
Cc1cc(=O)n2ncnc2n1COCCO	-1%
Cc1cccc(NC(=O)CSc2nnc(CCCCCNC(=O)OC(C)(C)C)o2)c1C	53%
CC1CCCCC1NC(=O)c1cc2c(s1)CS(=O)(=O)C2 (centres undefined)	-9%
COC(=O)C(F)(F)Sc1c(C)[nH]c2ccccc12	-8%
O=C(Cn1cnc2ccccc2c1=O)Nc1ccc2c(c1)OCCO2	-8%
COC(=O)CNC(=O)C1(CC(C)C)C=CCN1C(C)=O (centres undefined)	-2%
CCOC(=O)C1=C(C)NC(=O)NC1c1cccnc1 (centres undefined)	-6%
Cc1ccc(-c2nc(CSCC(=O)NCCN3CCN(Cc4ccccc4)CC3)c(C)o2)cc1	146%
Cc1cc(NC(=O)c2cc(-c3ccccc3)on2)n(-c2ccccc2)n1	11%
O=C(Oc1ccc2c(c1)OCO2)c1ccc(Br)c(S(=O)(=O)N2CCOCC2)c1	44%
O=C(CC(c1ccccc1O)N1CCCCC1)N1CCCCC1 (centres undefined)	-1%
CCOc1ccc2[nH]c(=O)c(CN(CCOC)C(=O)N3CCOCC3)cc2c1	19%
COC(=O)c1ccc(S(=O)(=O)NCc2cccc(OC)c2)n1C	-6%
COC(=O)CSc1nc2cc3c(cc2cc1C#N)OCO3	6%
CCCn1c(OC)nc2c1c(=O)n(C)c(=O)n2C	4µM*[single pt active]
COC(=O)c1ccc(NC(=O)CN2CCN(S(=O)(=O)c3cc(Cl)ccc3OC)CC2)cc1	120%
O=c1[nH]cnc2c1oc1ccccc12	-8%
Cc1sc2nc(C3CC3)nc(N3CCN(S(=O)(=O)c4ccc(F)cc4)CC3)c2c1C	0%
CSc1ncccc1C(=O)OCc1ccccc1F	-1%
O=P(C1=C(N2CCOCC2)/C(=C\c2ccccc2)CC1)(N1CCOCC1)N1CCOCC1	123%
CCOC(=O)c1sc(NC(=O)COC(=O)c2ccco2)nc1C	-4%
COc1cccc(OC)c1OCCNC[C@@H]1COc2ccccc2O1	53%&38%
N#CC1=C(N)C(C#N)(C#N)C2(C(=O)Nc3ccccc32)C2CCCC=C12 (centres undefined)	-2%
COc1cc(N=C(N)N=C(N)N)c2ncccc2c1	7%[5.75 µM]
CC(C)(C)c1ccc([C@@H](O)CCCN2CCC(C(O)(c3ccccc3)c3ccccc3)CC2)cc1	10%[12.8 µM]
CCc1nccn1S(=O)(=O)c1cc(Br)ccc1OC	14%
Cc1cc(C)nc(SCNC(=O)c2ccccc2)n1	4%
O=C(NCc1cccnc1)C1c2ccccc2C(=O)N1C1CCCCCCC1 (centres undefined)	21%
O=CN1Cc2[nH]c3ccccc3c2N(c2ccc(Cl)cc2)C1=O	-2%
COc1ccc(C(=O)N(Cc2ccco2)C(C(=O)NC2CCCC2)c2ccc(O)cc2)cc1OC (centres undefined)	30%
O=C(Nc1ccc(NC(=O)C23CC4CC(CC(C4)C2)C3)cn1)c1ccco1	-8%
COc1ccc(CN(CCCN2CCOCC2)C(=O)Nc2cccc(Cl)c2)cc1OC	125%
Cc1cc(NC(=O)CSc2nnc3c4c(C)c(C)sc4ncn23)no1	115%

The list goes on, starting with the last 5 of the part before.
SMILES	AmpC inh no det
O=CN1Cc2[nH]c3ccccc3c2N(c2ccc(Cl)cc2)C1=O	-2%
COc1ccc(C(=O)N(Cc2ccco2)C(C(=O)NC2CCCC2)c2ccc(O)cc2)cc1OC (centres undefined)	30%
O=C(Nc1ccc(NC(=O)C23CC4CC(CC(C4)C2)C3)cn1)c1ccco1	-8%
COc1ccc(CN(CCCN2CCOCC2)C(=O)Nc2cccc(Cl)c2)cc1OC	125%
Cc1cc(NC(=O)CSc2nnc3c4c(C)c(C)sc4ncn23)no1	115%
Cc1nn(Cc2ccc(Cl)cc2)c(C)c1NC(=O)C1CC=CCC1C(=O)O (centres undefined)	15%
c1ccc2c(c1)Nc1ccccc1S2	-9%
O=C(Cn1nnc(-c2ccccc2)n1)N1CCN(S(=O)(=O)c2ccc(Cl)cc2)CC1	18%
Cc1ccc(S(=O)(=O)N(CC(=O)N2CCC(C(N)=O)CC2)c2cccc(C(F)(F)F)c2)cc1	115%
Cc1ccc(NC(=O)CSc2nnc([C@@H](N)Cc3c[nH]c4ccccc34)o2)c(C)c1	58%
COc1ccc2[nH]cc(CCNc3ncnc4ccc(-c5ccoc5)cc34)c2c1	-3%
COc1ccc(C2NC(=O)NC(C)=C2C(=O)Nc2cc(C)ccc2C)cc1OC (centres undefined)	5%
O=c1[nH]c(CN2CCN(Cc3ccccc3)CC2)nc2sc3c(c12)CCC3	6%
O=C(c1cn[nH]c1)c1cc(F)ccc1O	-13%
COCCCNC(=O)c1c(N)n(-c2ccc3c(c2)OCO3)c2nc3ccccc3nc12	136%
CC(NC(=O)CSc1ncnc2nc[nH]c12)c1ccccc1 (centres undefined)	4%
O=C1CC(C(=O)NCc2ccccc2)C2(CCCC2)O1 (centres undefined)	-3%
COc1ccc(N=C(N(C)C)P(=O)(N(C)C)N(C)C)cc1	-24%
Cc1ccc(CN2C(=O)CCC2C(=O)NCCCN2CCC(C)CC2)cc1 (centres undefined)	-14%
CCOC(=O)Nc1ccc2c(c1)nc(CN1CCOCC1)n2C	-2%
CCOC(=O)C1SC2(C(F)F)CC1(O)c1c(c(OC)c3occc3c1OC)O2 (centres undefined)	35%
CCOC(=O)CSc1nnc(CNC(=O)Cc2ccccc2)n1-c1ccccc1OC	39%
CCOC(=O)Cc1csc(NC(=O)c2ccoc2C)n1	8%
CC1(C)CC(=O)C2=C(C1)N(CCN1CCOCC1)C1=C(C(=O)CC(C)(C)C1)C2c1cccc(Cl)c1	116%
COCC(=O)NCCc1nc(-c2ccccc2)cs1	0%
Cc1ccc(S(=O)(=O)NCC(=O)OCC(=O)N2CCc3ccccc32)cc1	-17%
O=c1[nH]c2ccccc2n1CCCSc1cnc2ccccc2n1	15%
CCOC(=O)N1CCC(NC(=O)C2CCN(C(=O)N3CCOc4ccccc43)CC2)CC1	75%
Cc1c(C(=O)Nc2ccncc2)sc2nc(-c3ccccc3)cn12	22%
CCOC(=O)C1=C(C)OC(N)=C(C#N)C1c1cc2c(cc1Br)OCO2 (centres undefined)	-16%
Cc1cc(NC(=O)c2noc3c2CCCC3)nn1Cc1ccc(Cl)cc1	8%
O=C(OCC(=O)N1CCN(C(=O)c2ccco2)CC1)c1ccccc1C(=O)c1ccc(Cl)cc1	139%
COc1cc(OC)c(C(=O)CCCCN2CCC3(CC2)NC(=O)NC3=O)cc1NS(=O)(=O)c1ccc(C(F)(F)F)cc1	76%
Cc1noc(C)c1COc1ccc(C(=O)OCC(=O)c2ccc3c(c2)OCCO3)cc1	-13%
O=C(COC(=O)c1cccc(S(=O)(=O)N2CCc3ccccc32)c1)NC1CCS(=O)(=O)C1 (centres undefined)	89%
CCOc1cc(C2C(C(=O)OC)=CN(C3CCCC3)C=C2C(=O)OC)cc(Br)c1O	39%
O=C(Nc1nnc(CCc2ccccc2)s1)c1cccs1	-20%
O=C(N1CCCCCC1)N1CCN(C(=O)N2CCCCC2)CC1	23%
N#CC1=C(O)C(c2ccccc2)n2c1nc(=O)c1ccccc12 (centres undefined)	-12%
Cc1sc(NC(=O)CCCC(=O)O)c(C#N)c1C	-10%
N#C/C(=C\c1ccc[nH]1)S(=O)(=O)c1ccccc1	-10%
CCOC(=O)c1sc(=S)n(CC)c1NC(=O)C1CC1	4%
O=C(NCc1cccs1)C1CCN(c2nccs2)CC1	2%
Nn1cnnc1SCC(=O)Nc1ccc2c(c1)OCCO2	2%
O=C(CSc1nnc(Cc2cccs2)n1Cc1ccco1)Nc1ccc(Cl)cc1Cl	-4%
O=C(Cc1ccc(Cl)cc1)NCCN1CCCC1	1%
c1ccc2c(c1)CCN(c1ncnc3nc[nH]c13)C2	0%
CCc1nnc(NC(=O)C2CC(=O)N(c3ccc(C)cc3)C2)s1 (centres undefined)	5%
CCOC(=O)c1c(NC(=O)c2ccc(Cl)s2)sc(C)c1C	8%
Cc1ccc(C)c(NC(=O)c2ccccc2O)c1	-20%
O=C(O)c1cc2c(ccc3ccccc32)[nH]1	-6%
CCc1ccccc1O	-3%
COc1ccc(C2C(C(C)=O)=C(C)N=c3s/c(=C\c4cc(C)n(C)c4C)c(=O)n32)c(OC)c1 (centres undefined)	110%
COC(=O)c1ccc(CSCC(=O)Nc2cc(OC)cc(OC)c2)o1	2%
C[C@@](N)(C(=O)O)c1ccc(P(=O)(O)O)cc1	48%
COc1ccccc1OCCn1c(CO)nc2ccccc21	16%
COc1ccc(NC(=O)N2CC[C@@]3(CCCN(S(C)(=O)=O)C3)C2)cc1	-3%
O=C(NCCCN1CCOCC1)c1cc(-c2ccc(Cl)cc2)on1	29%
Cc1cc(C)c2c(n1)SCC(=O)N2CC(=O)NCCC1=CCCCC1	6%
O=C1CSC(=Nc2cc(Cl)ccc2Cl)N1	8%
CC1=CC(=O)CC(C)(C)C1(O)/C=C/C(C)=C\C(=O)O (centres undefined)	-1%
CCC1CCCCN1C(=O)Nc1ccc(F)cc1 (centres undefined)	2%
O=C(O)c1ccccc1-c1ccc(/C=c2\sc3nc4cc(Br)cnc4n3c2=O)o1	-8%
CCCc1nc(N)c(C#N)c(-c2ccco2)c1CC	10%
N=c1sccn1CC(=O)Nc1ccccc1-c1ccccc1	-10%

Next part; the last 3 above are carried over.
SMILES	AmpC inh no det
O=C(O)c1ccccc1-c1ccc(/C=c2\sc3nc4cc(Br)cnc4n3c2=O)o1	-8%
CCCc1nc(N)c(C#N)c(-c2ccco2)c1CC	10%
N=c1sccn1CC(=O)Nc1ccccc1-c1ccccc1	-10%
O=C(O)Cc1[nH]cnc1C(=O)O	-12%[5.75 µM]
COC(=O)c1cc(NC(=O)c2c(Cl)nc3sccn23)cc(C(=O)OC)c1	8%
Cc1ccc(S(=O)(=O)Nc2nncs2)cc1	-12%
O=C(Nc1cc(N2CCOCC2)ncn1)Nc1cccc2ccccc12	73%
CC(C)(C)C(=O)/C=C(N)/C=C/c1ccccc1	20%
CC(C)NC[C@H](O)c1ccc(O)c(O)c1	-10%
Cn1c2c(c(=O)[nH]c1=O)C(NC(=O)c1ccco1)(C(F)(F)F)C(=O)N2 (centres undefined)	-11%
O=C(CSc1nnnn1C1CCCCC1)NCCc1ccccc1	25%
CC(=O)n1nc(-c2ccco2)nc1SCc1ccccc1	?
CCN(CC)S(=O)(=O)c1cccc(-c2nnc(SCC(=O)NCCC3=CCCCC3)n2N)c1	84%
OC1CCCC1	-15%
O=C(CN1C(=O)COc2ccccc21)Nc1ccc(F)cc1	4µM*[single pt active]
O=C(COc1ccccc1)N1CCN(C/C=C/c2ccccc2)CC1	82%
CCC(Oc1ccccc1)C(=O)Nc1cc(C)on1 (centres undefined)	2%
CCOC(=O)N1CCC(NC(=O)c2cn(-c3ccc(OC)cc3)c(=O)c3ccccc23)CC1	76%

Fetched by structure from the list above:
SMILES	AmpC inh no det
CC(=O)n1nc(-c2ccco2)nc1SCc1ccccc1	?
O=C(COc1ccccc1)N1CCN(C/C=C/c2ccccc2)CC1	82%
Cn1c2c(c(=O)[nH]c1=O)C(NC(=O)c1ccco1)(C(F)(F)F)C(=O)N2 (centres undefined)	-11%
Cc1ccc(S(=O)(=O)Nc2nncs2)cc1	-12%
COC(=O)c1cc(NC(=O)c2c(Cl)nc3sccn23)cc(C(=O)OC)c1	8%
O=C(O)Cc1[nH]cnc1C(=O)O	-12%[5.75 µM]

The results go on:
SMILES	AmpC inh no det
CCOC(=O)c1[nH]c(C)c(C(=O)Nc2ccc(Cl)cc2)c1C	-7%
Cc1cccc(N2CC3=C(C2=O)C(c2ccccc2)NC(=O)N3C)c1 (centres undefined)	33%
NC(=O)C1CC(=O)N(Cc2ccc3c(c2)OCO3)C(=Nc2ccccc2)S1 (centres undefined)	72%
CCN(Cc1ccccc1)C(c1ccncc1)c1nnnn1C(C)(C)C (centres undefined)	83%
COC(=O)[C@@]1(Cc2ccc(F)cc2)[C@H]2c3cc(C(=O)N(C)C)n(Cc4ccccn4)c3C[C@H]2CN1C(=O)c1ccccc1	167%
COc1cccc(-c2nc(CC(=O)O)cs2)c1OC	-10%
CCCNC(=O)c1ccccc1NC(=O)CN(c1ccccc1OCC)S(C)(=O)=O	22%
CCC(=NCCC1=CCCCC1)c1c(O)[nH]c(=O)[nH]c1=O	11%
CCOc1ccc(NC(=O)CNC(=O)c2ccc(OC)c(OC)c2)cc1	22%
COc1ccc(CCNC(=O)CSc2nnnn2-c2ccccc2)cc1	4%
Nc1cc(=O)nc(SCc2ccccc2)n1Cc1ccco1	26%
Cc1cccc(C)c1NS(=O)(=O)c1ccc(F)cc1	-11%
O=C(O)C1CN2CCC1CC2 (centres undefined)	-4%

Compound activity from PubChem BioAssay.
